Screening data (PubChem BioAssay)
N370S GC mod = inhibits or activates N370S mutant glucocerebrosidase. P04062. N370S GC spleen homogenate, 4MU-glucoside fluorescence. Potency, µM (doses to about 59.4 µM), for inactives: at the top dose activity change, negative = inhibition, actives largely listed as inhibitors. actives 0.092% (n = 330,000). AID 2101;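 further: 0% = full enzyme activity and -100% = no enzyme basal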
TDP1 cell CPT = growth inhibition of DT40 Tdp1-/-;hTDP1 cells with camptothecin (screen for TDP1 inhibitors); chicken DT40 Tdp1-/-;hTDP1 cells + 20 nM CPT, ATP luminescence, 48 h; Potency, µM (top dose mostly 46.2 µM), without a hit: at the highest dose activity change, negative = growth inhibition, most hits filed as inhibitors; actives 12% (n = 420,000); further: nearly all actives have a fitted effect of over 55% in size
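Chicken DT40 Tdp1-/- cells complemented with human TDP1, 400 cells/well, exposed to compounds plus 20 nM camptothecin for at least 48 h at 37 C; viability read as ATP content by CellTiter-Glo luminescence.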
The depositor's hits bear a star; ? = inconclusive; / = no result given; [ ] = remark or other dose. The call rests on the fitted dose curve; in most records, active means well fitted curve in the direction sought with a large enough effect; inconclusive means small, poorly fitted or top-dose-only effect, or another doubt; inactive means no such curve, though single readings can be large; an effect the other way counts as inactive or inconclusive. Unless noted, on the % scale 0 is the no-effect control and ±100 the full control effect; potency means the concentration at half of the fitted maximal effect. A portion of the library, and most or all hits are left out here.

No.	canonical_smiles	N370S GC mod	TDP1 cell CPT
1	Cc1ccccc1C(=O)NCC(=O)Nc1ccc(C)c(S(=O)(=O)N2CCCCCC2)c1	-4%	?
2	COc1ccc(C(=O)/C=C/c2ccc(OC3CSC3)cc2)cc1OC	5%	?
3	CCC[C@H]1C(=O)N2C(N(C)C)=Nc3ccc(C)cc3N2C1=O	8%[21.6 µM]	/
4	Cc1ccc(N2C(=O)C3ON(c4ccccc4)C(CC(C)C)C3C2=O)cc1 (stereo not given)	1%	-11%
5	CCOc1ccc(C(=O)NCCc2ccccc2)cc1	3%	-26%
6	COc1ccc2c(c1OC)C(=O)N(c1ncn[nH]1)C2	11%	-5%
7	CCNc1nc(NCC)n2c(SCC(=O)Nc3ccc(OC)c(OC)c3)nnc2n1	1%	2%
8	CC(NC(=O)COc1ccccc1)C1COc2ccccc2O1 (stereo not given)	/	-20%
9	CCn1cc(C(=O)NC2CC(C)(C)Cc3c2cnn3-c2cccc(F)c2)cn1 (stereo not given)	-6%	16µM*
10	CCOC(=O)C1CCCN(C(=O)c2cc3cc(OC)c(OC)cc3[nH]2)C1 (stereo not given)	0%	-2%
11	COc1ccc(Cl)cc1NC(=O)Nn1cnnc1	-16%	-2%
12	CCNc1nc(NCC)nc(N(C)/N=C/c2ccco2)n1	6%	1%
13	CC1CCN(Cc2c(C(=O)O)nnn2-c2nonc2N)CC1	0%	-10%
14	N#CC(c1ccc(Cl)cc1)c1ccc(Cl)nn1 (stereo not given)	5%	2%
15	COc1ccc(/C=N/NC(=O)CO/N=C(\C)c2cccs2)cc1	-3%	-5%
16	CC1CCN(C(=O)c2[nH]cnc2C(=O)N(C)Cc2ccccc2)CC1	/	14%
17	C=CCN(c1ccccc1Cl)S(=O)(=O)c1cccc(C(=O)NCCc2ccc(OC)cc2)c1	9%	?
18	O=C(CCS(=O)(=O)c1ccc(Br)cc1)NCCC1=CCCCC1	2%	-18%
19	COCCNC(=S)NN=C1CCC(c2ccccc2)CC1 (stereo not given)	11%	?
20	NC(=O)C1CCN(c2c([N+](=O)[O-])cc(C(F)(F)F)cc2[N+](=O)[O-])CC1	4%	5%
21	COc1ccccc1OCCNC(=O)C(CCSC)NC(=O)c1ccccc1Cl (stereo not given)	-14%	-21%
22	COc1cccc(CC(NC(C)=O)C(=O)NC2CCN(c3nc(C)cc(C)c3C#N)CC2)c1OC (stereo not given)	?	-17%
23	CC(C)c1cc(C(=O)N2CCCC(N3CCN(c4ccc(F)cc4)CC3)C2)n(C)n1 (stereo not given)	-3%	16µM*
24	COc1ccc(C(=O)Nc2ccc(S(=O)(=O)Nc3nccc(C)n3)cc2)cc1OC	-28%	-18%
25	CC(C)c1ccccc1NC(=O)c1ccc2ncsc2c1	-6%	-6%
26	OCCN1CCN(c2ncnc3nc[nH]c23)CC1	-3%	-18%
27	O=C(Nc1ccc(F)cc1F)c1ccc2c(c1)OCCO2	-7%	-25%
28	COc1ccc(-c2nnc(NC(=O)CSc3ccc(Cl)cc3)s2)cc1OC	4%	6%
29	O=C(NCCc1ccc(Cl)cc1)C1CCN(c2cnccn2)CC1	-2%	?
30	CC(=O)c1c(O)cc(C)n(Cc2ccccc2)c1=O	/	3%
31	Cc1ccc(S(=O)(=O)N2CCC(=O)N(C(COCc3cccc(C)c3)Cc3ccccc3)CC2)cc1 (stereo not given)	17%	?
32	O=C(NCCN1CCCCC1)Nc1ccc([N+](=O)[O-])cc1	-4%	1%
33	COc1ccc(C2CC(=O)C(C=NCCO)=C(O)C2)cc1OC (stereo not given)	1%	-7%
34	CCCCN(C(=O)c1ccc2c(c1)OCO2)c1c(N)n(CCCC)c(=O)[nH]c1=O	-1%	17%
35	CS(=O)(=O)N(CC(=O)N1CCN(c2cccc(Cl)c2)CC1)c1ccccc1	0%	?
36	CC(NC(=O)COC(=O)c1cc(Cl)nc(Cl)c1)c1ccccc1 (stereo not given)	-7%	7%
37	CN(Cc1nc(-c2ccc(Cl)cc2)no1)C(=O)CCN1C(=O)[C@H]2CC=CC[C@H]2C1=O	1%	-26%
38	Cc1c(Cl)c([N+](=O)[O-])nn1CC(=O)N1CCCc2ccccc21	3%	0%
39	CN1CCN(S(=O)(=O)c2cccc(C(=O)N(Cc3nnc(-c4ccccc4Cl)o3)C3CC3)c2)CC1	-1%	4%
40	COCCn1c(SCc2ccc(F)cc2)nc2c1c(=O)[nH]c(=O)n2C	2%	-26%
41	CCCOc1ccc(NC(=O)C2CCCNC2=O)cc1 (stereo not given)	20%	0%
42	O=C(Nc1ccc(S(=O)(=O)N2CCCC2)cc1)c1cccs1	15%	-28%
43	Cc1cccc(Cn2nc(C)cc2NC(=O)CCCn2ccc([N+](=O)[O-])n2)c1	0%	12%
44	CN1CCN(c2ccc(CNS(=O)(=O)c3ccccc3)cc2)CC1	-1%	7%
45	Nc1ccc(Br)cc1Br	13%	-21%
46	CCCOc1ccc(-c2csc(N)n2)cc1[N+](=O)[O-]	19%	15µM*
47	C#CC[N+](C)(C)CCCCCCCCCC	-4%	2.1µM*
48	CC(C)OCCCNCc1cccs1	11%	-6%
49	O=C(CCN1CCOCC1)Nc1cc(C(=O)Nc2ccccc2F)ccc1N1CC2CC(C1)c1cccc(=O)n1C2 (stereo not given)	-13%	2%
50	COc1cccc(CNC(=O)C2CCN(C(=O)N(C)C)CC2)c1	-7%	0%

Additional structures follow.
No.	canonical_smiles	N370S GC mod	TDP1 cell CPT
51	COC(=O)c1ccc(C(=O)OC)c(NC(=S)N2CCCC(C)C2)c1 (stereo not given)	19%	1%
52	C=CCOC(=O)C(=O)/C=C/c1coc2ccccc2c1=O	21%	?
53	Cc1cc2oc(C(=O)NCc3ccccc3)cc(=O)c2cc1C	-2%	13%
54	C=CCn1c(CCCOc2ccc(Cl)cc2Cl)n[nH]c1=S	3%	-2%
55	COC(=O)c1ccc(CSc2nc(C)nc3c2c(=O)n(C)c(=O)n3C)o1	3%	-22%
56	O=C(NCCCN1CCN(Cc2ccccc2)CC1)C1CCN(S(=O)(=O)N2CCCC2)CC1	7%	-9%
57	CC1=C(C#N)S(=O)(=O)C(C#N)C(c2ccccc2)C1 (stereo not given)	-17%	15%

Part of the list above in another layout:
39) CN1CCN(S(=O)(=O)c2cccc(C(=O)N(Cc3nnc(-c4ccccc4Cl)o3)C3CC3)c2)CC1
40) COCCn1c(SCc2ccc(F)cc2)nc2c1c(=O)[nH]c(=O)n2C
41) CCCOc1ccc(NC(=O)C2CCCNC2=O)cc1 (stereo not given)
42) O=C(Nc1ccc(S(=O)(=O)N2CCCC2)cc1)c1cccs1
43) Cc1cccc(Cn2nc(C)cc2NC(=O)CCCn2ccc([N+](=O)[O-])n2)c1
44) CN1CCN(c2ccc(CNS(=O)(=O)c3ccccc3)cc2)CC1
45) Nc1ccc(Br)cc1Br
46) CCCOc1ccc(-c2csc(N)n2)cc1[N+](=O)[O-]
47) C#CC[N+](C)(C)CCCCCCCCCC
48) CC(C)OCCCNCc1cccs1

assay / entry	39	40	41	42	43	44	45	46	47	48
N370S GC mod	-1%	2%	20%	15%	0%	-1%	13%	19%	-4%	11%
TDP1 cell CPT	4%	-26%	0%	-28%	12%	7%	-21%	15µM*	2.1µM*	-6%

49) O=C(CCN1CCOCC1)Nc1cc(C(=O)Nc2ccccc2F)ccc1N1CC2CC(C1)c1cccc(=O)n1C2 (stereo not given)
50) COc1cccc(CNC(=O)C2CCN(C(=O)N(C)C)CC2)c1
51) COC(=O)c1ccc(C(=O)OC)c(NC(=S)N2CCCC(C)C2)c1 (stereo not given)
52) C=CCOC(=O)C(=O)/C=C/c1coc2ccccc2c1=O
53) Cc1cc2oc(C(=O)NCc3ccccc3)cc(=O)c2cc1C
54) C=CCn1c(CCCOc2ccc(Cl)cc2Cl)n[nH]c1=S
55) COC(=O)c1ccc(CSc2nc(C)nc3c2c(=O)n(C)c(=O)n3C)o1
56) O=C(NCCCN1CCN(Cc2ccccc2)CC1)C1CCN(S(=O)(=O)N2CCCC2)CC1
57) CC1=C(C#N)S(=O)(=O)C(C#N)C(c2ccccc2)C1 (stereo not given)

assay / entry	49	50	51	52	53	54	55	56	57
N370S GC mod	-13%	-7%	19%	21%	-2%	3%	3%	7%	-17%
TDP1 cell CPT	2%	0%	1%	?	13%	-2%	-22%	-9%	15%

Exported with each value named: 2 of the compounds above.
[56] O=C(NCCCN1CCN(Cc2ccccc2)CC1)C1CCN(S(=O)(=O)N2CCCC2)CC1
  N370S GC mod: 7%; TDP1 cell CPT: -9%
[54] C=CCn1c(CCCOc2ccc(Cl)cc2Cl)n[nH]c1=S
  N370S GC mod: 3%; TDP1 cell CPT: -2%
